High-throughput results from PubChem.
Sa helicase inh: inhibitors of S. aureus replicative helicase, primary screen, biochemical, fluorescence unwinding readout | replicative DNA helicase (DnaC/DnaB), Staphylococcus aureus | 0.05% of 120,000 active | inhibition, %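 (tested at about 80 µM)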 | purified S. aureus helicase, fluorescence unwinding assay; about half of the hits fall short of the stated cut;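 active = both duplicates at 50% or more, or one of them with a favoured structure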;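 also: 0% = mean of negative control wells and 100% = mean of positive control wells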
MgrA DNA FP: S. aureus MgrA activity modulators, primary screen, biochemical, S. aureus Newman, fluorescence polarization; MgrA-DNA binding; 0.13% of 84,000 active; inhibition, %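 (about 10 µg/mL by stock and volumes)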;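 active = above 50% in either of two replicates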;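 also: 0% = protein plus DNA without compound and 100% = DNA alone without protein; higher means less MgrA bound to DNA so lower polarization; one replicate is shown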
The depositor's hits bear a star; nt = not tested or not shown. Only part of the results is shown; rates above refer to the full screens.

SMILES	Sa helicase inh	MgrA DNA FP
COC(=O)/C=C1\SCC(=O)N1CC(=O)NCCc1ccc(OC)c(OC)c1	-27	nt
O=C1CCCC2=C1C(c1ccccc1)C1=C(CCCC1=O)O2	7	-1.1
CCC1CCCCN1C(=O)c1sc2nc(C)cc(C)c2c1N (stereo unspecified)	1	-3.2
CC(Oc1ccc(F)cc1)c1n[nH]c(=S)o1 (stereo unspecified)	6	nt
O=C1C=C(Nc2ccccc2)CO1	nt	-4.0
O=C(CSc1nnc2c(n1)[nH]c1ccccc12)c1ccccc1	-4	nt
COc1ccc(-n2c(=O)c3c4c(sc3n3c(C)nnc23)COC(C(C)C)C4)cc1 (stereo unspecified)	-1	5.2
CC1(C)Cc2ccccc2-c2c1c(=O)n(Cc1ccccc1)c1n[nH]c(=S)n21	4	2.5
O=C(Oc1ccc(-c2csnn2)cc1)c1cccs1	nt	1.0
CCN(Cc1ccc(OC)cc1OC)C(=O)c1cnc(OC)cc1C(F)(F)F	nt	-2.5
Cc1ccc(OC(=O)C(C)(C)C)cc1C	13	-0.2
CC1=C(c2ccc(C)cc2)S(=O)(=O)NC1=NCC(=O)O	10	nt
N#CC1=C(N)OC(c2ccco2)=C(C#N)C1c1ccco1 (stereo unspecified)	nt	0.8
COc1ccc(/C=C(/C#N)S(=O)(=O)c2ccccc2)cc1Cn1nc(C)cc1C	9	-2.0
CN(C(=O)COC(=O)c1ccc2c(=O)n3c(nc2c1)CCC3)c1ccccc1	3	nt
COc1cccc(NC(=S)C(C#N)C(=O)N2CCC(C)CC2)c1 (stereo unspecified)	nt	3.7
CN(C)C(=O)N1CCCC(C(=O)NCc2ccccc2)C1 (stereo unspecified)	10	0.7
O=C(Nc1ccccc1)c1ccc2c(c1)CCO2	nt	-3.0
O=C(COC(=O)C1CC1)Nc1ccccc1	0	nt
CCOC(=O)c1oc2nc(-c3ccco3)cc(-c3ccco3)c2c1N	nt	2.1
CC(=O)Oc1ccc2nc(-c3cccs3)oc(=O)c2c1	-23	nt
COc1ccc(CC(=O)Nc2cc(C)c3c(=O)oc4ccccc4c3n2)cc1	15	nt
Cc1ccc(-n2c(SCC(=O)C(C)(C)C)nc3ccccc3c2=O)cc1	nt	4.0
O=C(Oc1ccccc1)c1cccs1	nt	1.5
CCOC(=O)c1c[nH]c2ccc(C)cc2c1=O	-4	2.9
Cc1[nH]c(-c2ccc3c(c2)OCO3)nc1C(=O)O	20	-1.4
NNC(=O)COc1ccc(Cl)cc1Cl	2	nt
O=C(CSC1=NCCS1)c1ccccc1Br	-17	4.1
CN(C1CCCCC1)S(=O)(=O)c1ccc(S(=O)(=O)N(Cc2ccccn2)Cc2ccco2)cc1	2	-3.5
COc1cc(/C=N/NC(=O)c2ccc(O)cc2)ccc1OCC(=O)N1CC(C)OC(C)C1 (stereo unspecified)	-5	nt
Cc1cc(NC(=O)C2CC(=O)N(Cc3ccccc3)C2)no1 (stereo unspecified)	-2	-1.2
CCOC(=O)N1CCC(NC(=O)C2CCN(c3ncnc4c3sc3cccc(F)c34)CC2)CC1	-4	nt
Cc1nn(CC(N)=S)c(C)c1Br	nt	-0.8
CCCSc1nc2c([nH]c3ccccc32)c(=O)n1-c1ccc(F)cc1	4	0.9
S=C(NCc1ccco1)Nc1ccc(N2CCOCC2)c2nonc12	1	-0.6
CCC(=O)Nc1ccc(OCc2ncc(C(F)(F)F)cc2Cl)cc1	nt	3.7
COc1ccc(S(=O)(=O)N2CCc3ccccc32)cc1C(=O)Nc1ccc2c(c1)OCCO2	-8	nt
CC1=CC(C)(C)NC(=O)N1c1ccc(C)cc1	6	nt
CCOCCCNc1n[nH]c(=S)s1	7	nt
O=C(NC(=S)/C(=C(/[O-])c1ccccc1)[n+]1ccccc1)c1ccccc1	-2	-2.6
CN(c1cc(C(F)(F)F)ccn1)N1C(=O)CSCC1=O	nt	0.4
COc1ccc(CCNC(=O)CSc2nc3c(cnn3-c3ccc(C)cc3)c(=O)[nH]2)cc1OC	15	4.0
O=C(/C=C/c1ccc(O)c(O)c1)OC(Cc1ccc(O)c(O)c1)C(=O)O (stereo unspecified)	nt	1.6
COCc1c(N)c(C)nc(Cl)c1C#N	8	19
NC(=O)c1ccccc1NS(=O)(=O)c1ccccc1	3	2.7
CCc1ccc(NS(C)(=O)=O)cc1	15	-1.3
O=C1CSc2ccc(C(F)(F)F)cc2N1Cc1ccccc1	nt	-4.2
O=C(Cc1ccc(F)cc1)NC1CCCCC1	9	-1.6
COC(=O)CNC(=O)c1ccccc1C	6	nt
CC(=O)C1=C(C)Nc2ccccc2S1	nt	12
CC1CCCCN1C(=O)c1ccc(Br)cc1 (stereo unspecified)	-16	-0.2
CN1CCc2c(sc(NC(=O)c3ccc(S(=O)(=O)N(C)C)cc3)c2C(N)=O)C1	10	nt
COC(=O)Sc1nnc(-c2ccc(Br)cc2)o1	17	16
CCOC(=O)N1CN(Cc2ccccc2)Cc2c1oc1ccccc1c2=O	19	nt
Cc1ccsc1CN(C)C(=O)Cn1c(C)nc2scc(-c3cccs3)c2c1=O	-13	nt
COc1ccc(C(=O)Nc2cc3c4c(c2)CCN4C(=O)CC3)c(OC)c1	10	nt
O=C(CC12CC3CC(CC(Br)(C3)C1)C2)Nc1cccnc1	-14	-1.9
c1csc(-c2ccc(-c3ccon3)s2)c1	nt	0.8
COC(=O)C1=C(NN(C)c2ccc(OC)cc2)CN(c2ccccc2)C1	5	-2.2
CCCCNC(=S)Nc1ccc(SC(F)F)cc1	12	nt

16 compounds already listed, ordered by SMILES length, low to high:
SMILES	Sa helicase inh	MgrA DNA FP
CCc1ccc(NS(C)(=O)=O)cc1	15	-1.3
CC(=O)C1=C(C)Nc2ccccc2S1	nt	12
O=C(Cc1ccc(F)cc1)NC1CCCCC1	9	-1.6
CCCCNC(=S)Nc1ccc(SC(F)F)cc1	12	nt
COC(=O)Sc1nnc(-c2ccc(Br)cc2)o1	17	16
NC(=O)c1ccccc1NS(=O)(=O)c1ccccc1	3	2.7
O=C1CSc2ccc(C(F)(F)F)cc2N1Cc1ccccc1	nt	-4.2
CN(c1cc(C(F)(F)F)ccn1)N1C(=O)CSCC1=O	nt	0.4
O=C(CC12CC3CC(CC(Br)(C3)C1)C2)Nc1cccnc1	-14	-1.9
CCOC(=O)N1CN(Cc2ccccc2)Cc2c1oc1ccccc1c2=O	19	nt
COC(=O)C1=C(NN(C)c2ccc(OC)cc2)CN(c2ccccc2)C1	5	-2.2
COc1ccc(C(=O)Nc2cc3c4c(c2)CCN4C(=O)CC3)c(OC)c1	10	nt
Cc1ccsc1CN(C)C(=O)Cn1c(C)nc2scc(-c3cccs3)c2c1=O	-13	nt
O=C(/C=C/c1ccc(O)c(O)c1)OC(Cc1ccc(O)c(O)c1)C(=O)O (stereo unspecified)	nt	1.6
CN1CCc2c(sc(NC(=O)c3ccc(S(=O)(=O)N(C)C)cc3)c2C(N)=O)C1	10	nt
COc1ccc(CCNC(=O)CSc2nc3c(cnn3-c3ccc(C)cc3)c(=O)[nH]2)cc1OC	15	4.0

Next part.
SMILES	Sa helicase inh	MgrA DNA FP
CCCNC(=O)COc1ccc(OC)cc1	20	-0.1
c1ccc2[nH]c(NCCCN3CCOCC3)nc2c1	-19	nt
CCn1c2ccccc2c2cc(NC(=O)COc3ccc(OC)cc3)ccc21	6	2.0
CC(C(=O)O)N1C(=O)c2cccnc2Sc2ccccc21 (stereo unspecified)	-7	nt
COc1cccc(C2=NC(=C(C)C)C(=O)O2)c1	-8	-4.7
O=c1oc2ccc(Cl)cc2cc1-c1cn2ccccc2n1	-17	nt
COC(=O)C1=C(N)OC2=C(C(=O)CC(C)(C)C2)C1c1ccc(C)cc1 (stereo unspecified)	10	nt
CSC1=C(C#N)C(c2ccccc2Cl)C(C(=O)Nc2ccccc2)=C(C)N1 (stereo unspecified)	23	nt
CCOC(=O)c1cnn(-c2ccc([N+](=O)[O-])cc2)c1N	nt	-1.2
CCSc1nc2c(c(=O)n1-c1ccc(OC)cc1)C1(CCCC1)Cc1ccccc1-2	nt	0.6
C=CCN1C(=O)S/C(=C/c2cn(CC(=O)O)c3ccccc23)C1=O	17	-0.5
COc1cc2c(cc1OC)C(C)N(C(=O)CN1CCOCC1)CC2 (stereo unspecified)	3	-1.6
Cc1ccccc1NCCC(=O)Nc1ccc(Cl)cc1	-7	nt
Cc1cc(C(=O)CC#N)c(C)n1-c1ccccc1F	3	-2.8
O=C(NCC1COc2ccccc2O1)c1ccc2c(Cl)c3c(nc2c1)CCCC3 (stereo unspecified)	19	1.2
COC(=O)Cn1c(O)c(N=NC(=O)c2ccc3c(c2)OCO3)c2ccccc21	2	-4.5
O=c1cc(CSc2nnc(-c3cccnc3)n2-c2ccccc2F)nc2sccn12	-15	nt
Cc1oc(-c2ccc(Cl)cc2)cc1C(=O)/C(C#N)=C/Nc1ccccc1	-21	nt
O=C(Nc1ccc(OC(F)(F)F)cc1)Nc1cc(C(F)(F)F)ccn1	7	nt
NC(=O)c1c(Nc2ccccc2)sc(C(=O)c2ccccc2)c1N	nt	3.4
C=CCN1C(=O)C2(/C(=C(/O)c3ccccc3)C(=O)C(=O)N2CCOC)c2ccccc21 (stereo unspecified)	8	-2.0
O=C(c1ccccn1)C1CC1c1ccccc1 (stereo unspecified)	nt	0.2
N#CCCSc1nnc(-c2ccncc2)n1Cc1ccccc1	2	-1.3
CC(C)c1nc(N)nc(=O)[nH]1	nt	-0.1
O=C(Cc1noc2ccccc12)Nc1ccc(F)cc1	2	-1.1
CC1COC(=O)C(NNc2ccc(Cl)c(Cl)c2)=N1 (stereo unspecified)	-27	nt
CCC(C)OC(=O)COc1ccc2c(=O)c(-c3ccc(OC)c(OC)c3)c(C(F)(F)F)oc2c1 (stereo unspecified)	4	-0.6
CC1=C(C(=O)c2ccccc2)C(c2ccc(C)cc2)NC(=O)N1 (stereo unspecified)	4	0.6
NNC(=S)NCCc1ccc(Cl)cc1	nt	-1.2
CCOc1cc(C=C2C(=O)NC(=S)NC2=O)ccc1OCCOc1ccc(C)c(C)c1	nt	8.9
Cc1nnc(NCc2ccco2)s1	-11	0.8
CCOC(=O)C(C)Sc1nnc(NC(=O)Nc2ccc(F)cc2)s1 (stereo unspecified)	6	nt
NC(=O)c1c(NC(=O)C2CC2)sc2c1CCCC2	-5	-0.1
COc1cc(-c2nc3ccccc3nc2-c2ccc(O)c(OC)c2)ccc1O	6	2.9
CN(C)C(=O)C(OC(=O)c1ccc(Cl)c(N)c1)c1ccccc1 (stereo unspecified)	-14	nt
CC1CN(c2oc(COc3ccc(Cl)cc3Cl)nc2C#N)CC(C)O1 (stereo unspecified)	8	-2.2
COCCCC/C(=N\OCCN)c1ccc(C(F)(F)F)cc1	nt	-1.2
Cc1ccccc1S(=O)(=O)Cc1ccc(C(=O)NCCCN2CCC(C)CC2)o1	10	nt
CC(C)(C)CC[n+]1ccc(C(N)=O)cc1	6	-0.2
Cc1ccc(S(=O)(=O)NCC(=O)OC2CCOC2=O)cc1 (stereo unspecified)	-8	nt
CC(C)(C)/C(O)=C(/C#N)c1nc2ccccc2[nH]1	-4	2.4
COc1ccc(CCN2C(=O)CC(C(=O)Nc3ccc(C(=O)O)cc3)SC2=Nc2ccc(F)cc2)cc1OC (stereo unspecified)	nt	1.0
NC(=O)c1ccc(NC(=O)COc2cc(Cl)ccc2Cl)cc1	-17	nt
Cc1sc2nc(SCc3nnc(Nc4ccccc4)s3)nc(N)c2c1C	-14	nt
CCN(CC(=O)Nc1cc(Cl)ccc1C)C(=O)CC1CCCC1	-4	nt
Cc1onc(-c2c(Cl)cccc2Cl)c1C(=O)Oc1cc(C(F)(F)F)nn1C	nt	-1.0
C=C(C)C1Cc2cc(/C=C/C(=O)O)c(O)cc2O1 (stereo unspecified)	9	54*
CCN(CC)CCOC(=O)C1(c2ccc([N+](=O)[O-])cc2)CCCC1	nt	5.0
CC(=O)OC(OC(C)=O)c1ccc(S(N)(=O)=O)cc1	14	1.1
COC(=O)c1ccc2c(=O)n(CC(C)O)c(=S)[nH]c2c1 (stereo unspecified)	15	nt
CCOC(=O)c1c(N)nn(C(=O)C(C)C)c1-c1ccccc1	6	nt
Cc1csc(NC(=O)c2cccc(S(=O)(=O)N(C)C)c2)n1	-4	nt
COC(=O)c1ccc(-n2c(C)cc(C(=O)CN3C(=O)CN(C)C3=O)c2C)cc1	20	nt
C1COCCOCCOCCN1	-36	nt
CCCn1c(C)cc(/C=C(\C#N)C(=O)OCc2nc(N)nc(Nc3ccccc3C)n2)c1C	3	nt
CCCCC(C)n1[nH]c(=O)c2c(C)cc(=O)[nH]c21 (stereo unspecified)	-1	nt
COc1ccccc1CCNC(N)=O	nt	2.0
O=C(Cn1cnc2ccccc21)Nc1ccc2c(c1)OCCO2	-15	-3.1
CC1CCC/C(=N/NC(=O)Cn2nnc3ccccc32)C1 (stereo unspecified)	-8	nt
COc1ccc(COC(=O)C2=C(C)NC(=O)NC2c2ccccc2OCc2ccccc2)cc1 (stereo unspecified)	nt	1.9

(next part)
SMILES	Sa helicase inh	MgrA DNA FP
CCCCN(C(=S)Nc1ccccc1CC)C1CCN(C(C)=O)CC1	11	-1.1
Brc1ccc(-n2cc3cnnc(-c4ccccc4)c3n2)cc1	-1	nt
CCOc1ccc(-n2c(=O)c3ccc(Cl)cc3n3c(Cn4nnc(-c5ccccc5)n4)nnc23)cc1	5	nt
CSc1nc2ccccc2n1Cc1ccc(C(C)C)cc1	-3	0.3
COC(=O)c1cc2c(C(F)(F)F)cc(=O)[nH]c2s1	-20	1.8
O=C(N(c1ccccc1)c1ccc(F)cc1)C12CC3CC(CC(C3)C1)C2	nt	2.8
CC(C)CC(N)C(=O)NC(CC(C)C)C(=O)O (stereo unspecified)	nt	-0.2
COC(=O)N/N=C/c1cccc(OC)c1O	7	nt
Cc1nc2ccc(O)cc2o1	10	-1.4

Looked up above:
MgrA DNA FP result of CC(C)CC(N)C(=O)NC(CC(C)C)C(=O)O (stereo unspecified) : -0.2
Sa helicase inh result of Brc1ccc(-n2cc3cnnc(-c4ccccc4)c3n2)cc1 : -1
